# High-throughput results from PubChem BioAssay.
# Sa growth inh: S. aureus growth inhibition. 0.53% of 170,000 active. relative growth, % (test concentration not listed). S. aureus RN4220 growth, OD600, 20 h, 42 °C; active compounds read low. AID 720641;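 active means growth at 42 °C up to 50% and 20 or more points under that at 30 °C, or under 10% at both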;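 further: 300 nL library stock went into each well; scaled to the means of positive and negative controls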
# HCMV NEC inh: inhibitors of HCMV UL50-UL53 nuclear egress complex interaction; 0.15% of 190,000 active; inhibition, % (test concentration not listed); AID 1918969; HTRF UL50-UL53 interaction, normalized percent inhibition;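 active means both replicates at 50% or more, plus weaker picks with an unusually low signal ratio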;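 further: stock transfer was 100 nL into about 20 µL; 0% = negative control wells and 100% = wells with untagged competitor protein; inactives centre near -12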
# GIV Gai3 FP: inhibitors of GIV GBA-motif binding to rat Galpha-i3; P08753; Galpha-i3/FITC-GIV peptide fluorescence polarization, 90 min; active compounds read low; scaled: aluminum fluoride 0%, vehicle 100%; percent of control (FP), % (test concentration not listed); 0.42% of 210,000 active;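 active means replicate mean at 85% of control or lower, very high polarization wells dropped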;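 further: lower values mean more displacement of the GIV peptide from Galpha-i3; wells of about 15 µL received 100 nL stock; the first replicate is given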
# Target sequence (P08753 whole entry, looked up): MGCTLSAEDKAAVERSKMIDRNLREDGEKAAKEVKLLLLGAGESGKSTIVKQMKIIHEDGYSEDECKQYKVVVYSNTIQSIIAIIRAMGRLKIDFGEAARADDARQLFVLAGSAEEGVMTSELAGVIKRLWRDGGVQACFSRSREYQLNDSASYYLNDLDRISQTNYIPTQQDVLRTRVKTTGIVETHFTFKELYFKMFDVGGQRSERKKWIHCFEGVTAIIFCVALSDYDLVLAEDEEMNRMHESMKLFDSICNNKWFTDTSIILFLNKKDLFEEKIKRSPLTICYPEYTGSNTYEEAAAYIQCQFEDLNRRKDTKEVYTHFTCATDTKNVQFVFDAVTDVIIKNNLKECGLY
# Sa growth inh second temp: recorded beside Sa growth inh, whose call it bears; relative growth, %; measured here: growth at 30 °C;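 optical density after 20 h as mean of two plates; 100% = untreated growth and lower means inhibition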
# * marks the source's active call; other numbers are inactive results; / = not tested or not shown; & = joins results of further samples.
SMILES,Sa growth inh,Sa growth inh second temp,HCMV NEC inh,GIV Gai3 FP
Cc1cc(C)n2nc(CN(c3ccc(F)cc3)S(=O)(=O)c3ccc(Cl)cc3)nc2n1,/,/,12,103
CC1=C(C#N)C(NC(=O)c2ccccc2Cl)(C(F)(F)F)C(=O)N1 (stereo unspecified),94,98,-2,101
O=C(CC1Sc2ncnn2C1=O)Nc1ccc(Br)cc1 (stereo unspecified),41,34,-5,109
C=CCN1C(=O)/C(=C/c2ccc(OCC#N)c(OC)c2)SC1=S,91,90,12,109
Cc1cc(-n2c(C)cc(C(=O)COC(=O)/C=C/c3ccccc3)c2C)no1,86,83,-6,/
CN1C(=O)/C(=C2\SC(=S)N(C)C2=O)SC1=S,105,95,12,99
CC(C)(C)c1ccc(Cn2c(NC(=O)c3ccccc3)nc3ccccc32)cc1,/,/,-3&-4,104&107
Cc1noc(/C=C/c2ccccc2F)c1S(=O)(=O)N1CCC(C(=O)Nc2ccc(C#N)cc2)CC1,75,79,/,102
CN1CCN(c2nnc(-c3ccc(Cl)cc3)c3ccccc23)CC1,/,/,-13,102
CCOc1ccc(NC(=O)N(CC(C)C)CC(C)C)cc1,91,101,6,104
O=C(c1ccc(Cl)cc1)N1N=C(c2ccc([N+](=O)[O-])cc2)CC1(O)C(F)(F)F (stereo unspecified),/,/,-38,102
CCOC(=O)c1c(C)oc2nc(C)nc(N(CC(C)C)CC(C)C)c12,92,97,/,104
Cc1nn(C)c2c1c(C(F)(F)F)cc(=O)n2CC(=O)N1CCCCC1,105,89,/,103
COc1ccc(C)cc1NC(=O)CCN1CCN(c2ccccc2)CC1,103,93,6,99
O=C(Nc1ccc(F)cc1F)C1CCN(C(=O)OCc2ccccc2)CC1,110,88,-25,97
COC(=O)C1=C(N)OC2=C(C(=O)CC(c3ccccc3)C2)C1c1ccc([N+](=O)[O-])cc1 (stereo unspecified),/,/,15,112
Fc1ccc(Nc2c3c(nc4ccccc24)CCC3)cc1,73,84,-36,107
COc1ccc(Nc2ncnc3onc(C)c23)cc1Cl,71,90,/,103
COc1cccc(C2C(C#N)=C(N)Oc3n[nH]c(-c4cccc([N+](=O)[O-])c4)c32)c1OC (stereo unspecified),/,/,5,108
CCc1nc2nc(C)[nH]n2c(=O)c1NC(=O)Nc1ccc2c(c1)OCCO2,/,/,7,96
COc1ccc(NC(=O)CCc2nc(-c3ccccc3F)no2)c(OC)c1,88,83,-4,102
CC1CCCCN1C(=O)c1noc2c1CC(C(C)(C)C)CC2 (stereo unspecified),67,61,-34,101
Cc1nnc(NC(=O)CSc2nnc(CNC(=O)c3ccco3)n2-c2ccc(F)cc2)s1,95,92,-7,104
CC(C)(C)S(=O)(=O)c1ccccn1,89,93,1,108
CCC(SC1=NCCS1)C(=O)Nc1nc(-c2ccccc2)cs1 (stereo unspecified),79,57,-14,103

# An excerpt from above in order of molecular weight, descending.
SMILES,Sa growth inh,Sa growth inh second temp,HCMV NEC inh,GIV Gai3 FP
Cc1cc(C)n2nc(CN(c3ccc(F)cc3)S(=O)(=O)c3ccc(Cl)cc3)nc2n1,/,/,12,103
COc1ccc(C)cc1NC(=O)CCN1CCN(c2ccccc2)CC1,103,93,6,99
CC1=C(C#N)C(NC(=O)c2ccccc2Cl)(C(F)(F)F)C(=O)N1 (stereo unspecified),94,98,-2,101

# Returning to the listing; the four compounds before the break are reprinted first.
SMILES,Sa growth inh,Sa growth inh second temp,HCMV NEC inh,GIV Gai3 FP
CC1CCCCN1C(=O)c1noc2c1CC(C(C)(C)C)CC2 (stereo unspecified),67,61,-34,101
Cc1nnc(NC(=O)CSc2nnc(CNC(=O)c3ccco3)n2-c2ccc(F)cc2)s1,95,92,-7,104
CC(C)(C)S(=O)(=O)c1ccccn1,89,93,1,108
CCC(SC1=NCCS1)C(=O)Nc1nc(-c2ccccc2)cs1 (stereo unspecified),79,57,-14,103
COc1ccc(/C=C/C(=O)Sc2cccc3cccnc23)cc1,102,71,-19,/
N#Cc1ccc(OC(=O)N2CCOCC2)cc1,106,98,2,108
CCc1cc(C(=O)OCC(=O)Nc2ccccc2F)c2ccccc2n1,86,67,-30,/
Cc1ccc(NC(=O)Nc2cccc(C)n2)cc1,93,91,-39,105
O=S(=O)(c1cccs1)N1CCC2(CC1)Nc1ccc(Cl)cc1-n1cccc12,/,/,-28,109
COc1cccc2sc(N3CCN(C(=O)CCS(=O)(=O)c4ccc(F)cc4)CC3)nc12,117,92,/,102
COC(=O)c1ccc2c(=O)n(CC(=O)N3CCc4ccccc4C3)c(=S)[nH]c2c1,/,/,-22,106
COCCNC(=O)C1CCCN(c2cnnc3c(Cl)cccc23)C1 (stereo unspecified),91,84,-125,100
CN(CC(=O)Nc1ccc(Cl)cc1)C(=O)Cn1nnc2ccccc2c1=O,91,90,-32,/
COC(=O)c1cc(S(=O)(=O)NC2CCCCNC2=O)oc1C (stereo unspecified),103,95,-25,111
CC1(C(=O)O)Cc2ccccc2C(=O)O1 (stereo unspecified),86,92,-34,105
CC(N=CC1=C(O)CNC1=O)c1ccccc1 (stereo unspecified),88,82,-30,98
CCOC(=O)c1cc2c(nc1C)-c1cc(Cl)cc(Cl)c1OC2O (stereo unspecified),78,96,-6,/
O=C(NC(=S)N1CCCC1)C1CC1,97,102,6,/
CCOc1ccc(/C=N/NC(=O)Cc2cc(=O)[nH][nH]2)cc1,92,81,-41,95
Fc1cccc(Cl)c1CSC1=NCCN1,105,98,2,103
COc1ccccc1CNC(=O)C1CCN(C(=O)c2ccco2)CC1,104,84,/,106
CC1=C(C(N)=O)C(c2ccc(C(C)C)cc2)n2nc(SCc3ccccc3)nc2N1 (stereo unspecified),109,90,-10,106
O=C1c2ccccc2C(O)(c2ncc[nH]2)N1CCO (stereo unspecified),88,90,-14,103
CCCCNC(=O)c1cnc2c(-c3ccc(OCC)c(OCC)c3)c(C)nn2c1-c1ccccc1,101,97,/,106
Cc1cccc(C)c1NC(=O)CSc1nc2ccccc2c2nc(CCc3c(C)n[nH]c3C)nn12,102,81,/,104
COc1ccc(Nc2ncc3c(n2)CCN(C(=O)OC(C)(C)C)C3)cc1,103,88,-14,102
CC(C)Nc1ccccn1,95,89,-18,/
Oc1ccccc1C1CC(c2cccc(Br)c2)=NC(c2ccc(Br)cc2)N1 (stereo unspecified),76,72,/,104
COc1ccc(CNc2cc(C)nc3ccc(OC)cc23)cc1,75,85,-2,/

# Some entries already given, reduced to Sa growth inh, GIV Gai3 FP and Sa growth inh second temp.
SMILES | Sa growth inh | GIV Gai3 FP | Sa growth inh second temp
O=C(NC(=S)N1CCCC1)C1CC1 | 97 | / | 102
COC(=O)c1ccc2c(=O)n(CC(=O)N3CCc4ccccc4C3)c(=S)[nH]c2c1 | / | 106 | /
Cc1ccc(NC(=O)Nc2cccc(C)n2)cc1 | 93 | 105 | 91
Cc1cccc(C)c1NC(=O)CSc1nc2ccccc2c2nc(CCc3c(C)n[nH]c3C)nn12 | 102 | 104 | 81

# Continuation.
SMILES,Sa growth inh,Sa growth inh second temp,HCMV NEC inh,GIV Gai3 FP
COc1ccc(/C=C/C(=O)O)cc1S(=O)(=O)N(C)C,92,102,-25,/
CCOC(=O)CSc1sc(C(=O)OCC)c(N)c1C(=O)N1CCOCC1,95,89,-24,103
COc1ccccc1NC(=O)C(C)Nc1ccc(C)cc1C (stereo unspecified),89,84,-11,/
Cc1cc(C(=O)CC#N)c(C)n1CC(F)(F)F,90,94,-6,/
CCC(Sc1nnc(-c2cc3occc3n2C)n1-c1ccccc1C)C(=O)NC1CCCC1 (stereo unspecified),106,91,-10,99
Cc1cc(OCC(=O)N(Cc2ccc(C(C)C)cc2)C2CCS(=O)(=O)C2)cc(C)c1Cl (stereo unspecified),105,80,/,98
CCOC(=O)c1cc(-c2ccccc2)n(-c2cccc(C(=O)Nc3cccc(C(C)=O)c3)c2)c1C,104,99,/,95
Cc1cccc(C)c1OCC(O)Cn1c(C2CC(=O)N(Cc3ccccc3)C2)nc2ccccc21 (stereo unspecified),/,/,-7,109
COc1ccc(-c2noc(COc3ccc(C)cc3C)n2)cc1OC,95,87,/,100
CCN(C(=O)C1CCCN(c2ncnc3c2nc2n3CCCCC2)C1)c1cccc(Cl)c1 (stereo unspecified),126,76,/,105
COc1ccccc1C1OC(CSc2nc3ccccc3o2)=NN1C(C)=O (stereo unspecified),103,87,-28,101
Cc1c(C(=O)N2CCOCC2)oc2c1-c1nn(CC(=O)NC3CCCCC3C)cc1CC2 (stereo unspecified),105,92,-12,104
COc1ccc(Cn2ccn(CC(=O)Nc3cc(C)ccc3C)c(=O)c2=O)cc1,95,88,5,102
COc1ccc(CNc2nc(SCc3ccc(Cl)cc3)nc3ccccc23)cc1,85,85,/,101
Cc1cc(C)cc(-n2ccn(Cc3ccccc3C)c(=O)c2=O)c1,102,92,-23,96
CC(C)NC(=O)CCCCn1c(=O)c2ccccc2n(CC(=O)Nc2cc(F)ccc2F)c1=O,/,/,-11,108
CCc1ccnc(NC(=O)CC2(CC(=O)O)CCCC2)c1,109,87,-8,103
COc1ccc(C(=O)NCC(c2ccc(Cl)cc2)N2CCCCC2)cc1 (stereo unspecified),106,85,-11,104
O=C(c1ccccc1)N(c1ccccc1)C1C=CS(=O)(=O)C1 (stereo unspecified),99,80,2,99
O=C(NC(c1ccccc1)c1ccccc1)C1CCN(c2ncccn2)CC1,102,97,2,98
CCN(CC(=O)O)S(=O)(=O)c1ccccc1,93,106,-3,102
Cc1cccc(C(=O)Nc2sc3c(c2C(=O)N2CCCCC2)CCC(C)C3)c1 (stereo unspecified),105,90,-42,108
Cc1cccc(C2CC(=O)Nc3nc(N)[nH]c(=O)c32)c1 (stereo unspecified),/,/,9,96
CN(Cc1ccccc1)S(=O)(=O)c1ccc2c(c1)CCCC(=O)N2,91,91,-3,101
CCCCc1nn2c(C)c(-c3ccc(OCC)cc3)nc2s1,90,87,8,96
# Next section
SMILES,Sa growth inh,Sa growth inh second temp,HCMV NEC inh,GIV Gai3 FP
COc1ccc(-c2noc(N3CCC(C(=O)NC(C)c4ccccc4)CC3)n2)cc1 (stereo unspecified),91,91,/,101
Cc1cc(NC(=O)CCS(=O)(=O)c2nc(-c3ccc4c(c3)OCO4)cc(C(F)(F)F)n2)no1,74,52,/,102
Clc1cccc(Nc2c3c(nc4ncnn24)CCC3)c1,/,/,-12,102
CCOc1ccc(C2C(C(=O)Nc3ccc(C)cc3C)=C(C)Nc3c(C(=O)Nc4ccc(C)cc4)cnn32)cc1OC (stereo unspecified),84,90,/,101
O=C1C2Sc3[nH]c(=O)sc3C(/C=C/c3ccccc3)C2C(=O)N1c1ccc(Br)cc1 (stereo unspecified),83,59,/,146
O=C(COc1ccccc1O)Nc1ccccc1Br,117,84,-17,/
CNC(=O)COc1ccccc1Br,69,88,-17,/
CCOC(=O)Nc1ccc2c(CN3CCc4ccccc4C3)cc(=O)oc2c1,80,89,-19,/
O=C(CCCn1c2ccccc2c2cn[nH]c(=O)c21)NC1CCCCCC1,103,92,6,102
CC1(C)C(C#N)=C(S)NC(=O)C1C#N (stereo unspecified),80,85,-16,/
Cc1c(C(=O)N(C)Cc2ccccc2)sc2ncnc(N3CCN(c4ccccc4)CC3)c12,90,68,/,106
COC(=O)c1cn(NC(=O)c2ccncc2)c(=O)c2ccccc12,100,87,-22,99
CCOc1ccc2cc(C3CC(c4ccco4)=NN3S(C)(=O)=O)c(=O)[nH]c2c1 (stereo unspecified),93,80,-29,113
O=C(NCc1ccccc1)C(=O)Nc1c2c(nn1-c1ccc(F)cc1)CSC2,153,72,/,101
O=c1[nH]c(CN2CCc3ccccc32)nc2ccccc12,105,90,-34,/
CCCC(=O)NC(=S)Nc1ccccc1N1CCOCC1,106,99,16,/
COc1ccc(-c2noc(-c3ccccc3OCC(=O)Nc3ccc(C(C)=O)cc3)n2)cc1,98,88,-16,101
Cc1ccc(OCC(=O)NCC(=O)OCc2cc(=O)n3oc(C)cc3n2)cc1,/,/,-32,99
Cc1nn(CCCC(=O)NCCCN2CCCC2=O)c(=O)c2c(-n3cccc3)n(-c3ccccc3)nc12,/,/,-26,102
O=c1nc(SCc2ccccc2)c2c(n1C1CCCC1)CCC2,/,/,-19,102
CCO/C=C1\SC(=S)N(c2ccc(C(C)C)cc2)C1=O,92,81,-81,145
Cc1cc2ccccc2n1CCNC(=O)C1(c2ccc(Cl)cc2)CCCC1,99,90,/,100
CCNc1cc(Nc2ccc(Cl)cc2)c([N+](=O)[O-])c2nonc12,/,/,-28,103
O=C(Cn1cc(C(=O)c2ccccc2)c(=O)c2cc3c(cc21)OCCO3)Nc1ccc(F)c(F)c1,99,98,-1,107
CCC(C(=O)NCc1ccccn1)c1ccccc1 (stereo unspecified),103,87,-16,/
# Next section
SMILES,Sa growth inh,Sa growth inh second temp,HCMV NEC inh,GIV Gai3 FP
COc1cccc(-c2nn(Cc3ccccc3F)c(=O)c3noc(C)c23)c1,/,/,-44,114
C=CCNC(=O)Nc1ccc(OCC)cc1,94,93,-1,97
CCCN(CCC)S(=O)(=O)c1ccc(C(=O)Nc2nc3c(F)cc(F)cc3s2)cc1,/,/,15,109
CCOc1ccccc1NC(=O)n1nc(C)c2ccccc21,/,/,-15,99
COC(=O)c1cc(Cn2nc(C(=O)O)c3ccccc3c2=O)oc1C,88,90,-4,/
Cc1cc(C)cc(NC(=O)Cc2csc(C)n2)c1,105,87,-21&-18,110&109
CC(=O)N1CCN(Cc2csc(Nc3ccccc3)n2)CC1,106,84,-34,/
CCOC(=O)CNC(=O)N1Cc2c(sc3c2CCCC3)-n2cccc2C1c1ccc(OCC)cc1 (stereo unspecified),/,/,-32,107
